HSD17B inh – qHTS Assay for Inhibitors of HSD17B4, hydroxysteroid (17-beta) dehydrogenase 4. 3-hydroxyacyl-CoA dehydrogenase type-2 (Homo sapiens), Q99714. recombinant HSD17B10, NADH fluorescence kinetic; many of its hits are not listed in these tables. Potency, µM (highest dose often 57.1 µM), for the others: at the highest dose activity change, negative = inhibition, actives largely listed as inhibitors. actives 7.6% (n = 75,000). AID 893, 2007; active means well fitted inhibition curve with a large enough effect; inconclusive means small, poorly fitted or top-dose-only effect; inactive means no such curve, though single readings can be large or run the other way;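 further: the protocol describes HADH2 (HSD17B10) and not the HSD17B4 of the title; nearly all actives have a fitted effect of over 70% in size; most hits overshoot -100% by far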
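Enzyme plus compound, 15 min room temperature; substrate mix added (NAD+ 1 mM, beta-hydroxybutyryl-CoA 90 uM final); plates read kinetically for NADH fluorescence. HADH2 was His-tagged, E. coli-derived, 20 nM.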
* = called active by the depositor; ? = inconclusive; & = joins results of further samples; [ ] = another dose, or the depositor's remark. On the % scale 0 is the no-effect control and ±100 the full control effect; potency means the concentration at half of the fitted maximal effect. An excerpt, so the mix of outcomes need not match the whole.

cpd	Structure	HSD17B inh
1	Cc1ccc(C)c(-n2nnnc2SCC(=O)NCCC2=CCCCC2)c1	-2.2%
2	CCCN1C(=O)SC(CC(=O)Nc2ccc(Br)cc2)C1=O (stereo not drawn)	-6.0%
3	CN(Cc1ccco1)c1ccnc(-c2ccoc2)n1	?
4	CN1C(=O)NC(NC(=O)c2ccncc2)(C(F)(F)F)C1=O (stereo not drawn)	-3.1%
5	O=C1NCCN1C(=O)c1ccccc1F	-8.6%
6	CCOC(=O)c1cc(-c2ccc(Cl)s2)nc2c1c(C)nn2C	31.6µM*
7	CCCS(=O)(=O)N1CCC(C(=O)NCc2cccnc2)CC1	-1.4%
8	COc1ccc(-n2ncc3c(=O)n(CC(=O)N4CCCc5ccccc54)cnc32)cc1	-4.1%
9	Clc1ccc(C2[C@H]3CN(CC4CCCCC4)[C@H](c4ccccc4)C34CC2(c2ccccc2)C4)cn1 (stereo partly drawn)	-6.0%
10	O=c1cc(-c2cccc(O)c2O)oc2ccccc12	31.6µM*
11	CC1CCCCC1n1c(=S)[nH]c2ccccc2c1=O (stereo not drawn)	-12.8%
12	Cc1cc(=O)[nH]c(SCc2cccc(Br)c2)n1	5.5%
13	O=C(NC1CCC(NC(=O)C2CCCO2)CC1)C1CCCO1 (stereo not drawn)	-3.2%
14	COc1ccc(N2CC(C(=O)Nc3ccccc3C(=O)NCc3ccco3)CC2=O)cc1 (stereo not drawn)	2.1%
15	O=S(=O)(NCCOCC(F)(F)F)c1ccc2oc3ccccc3c2c1	-2.2%
16	COc1ccccc1OCCC(=O)OCC(=O)Nc1ncc(Cl)cc1Cl	4.4%
17	c1ccc(-n2nnnc2Oc2ccc(-c3nnco3)cc2)cc1	-3.9%
18	COC(=O)[C@H]1C[C@@H]1[C@H](NC(=O)c1cnccn1)c1ccccc1	3.0%
19	CCc1nn(C(C)C(=O)NC(C)CCc2ccco2)c(=O)c2cc3occc3n12 (stereo not drawn)	-0.9%
20	O=C1N(CC(=O)N2CCc3ccccc32)CCN1Cc1ccccc1Cl	4.6%
21	CCCCn1c(SCC(=O)c2ccccc2)nc2c1c(=O)[nH]c(=O)n2C	-5.8%
22	COc1ccc(-c2csc(N(CCCN3CCOCC3)C(=O)c3ccco3)n2)cc1	-5.2%
23	COc1ccc(N2CSC3=C(C#N)C(c4cccc(OC)c4OC)CC(=O)N3C2)cc1 (stereo not drawn)	?
24	Cc1nc(C)n(CC(O)COc2ccc(C(=O)c3ccccc3)cc2)n1 (stereo not drawn)	1.5%
25	CCOc1ccc2nc(NS(=O)(=O)c3ccc(NC(C)=O)cc3)sc2c1	3.0%
26	CCn1c(SCC(=O)N2CCCC2)nc2ccccc2c1=O	6.0%
27	COc1ccc(S(=O)(=O)Nc2ccccn2)c(C)c1C	-6.5%
28	COc1cc(C(=O)N2CCC(C(=O)Nc3cccc(C(C)=O)c3)CC2)cc(OC)c1OC	-11.7%
29	N#Cc1ccc(C23CC4(C2)[C@H](CN(Cc2ccc(C(F)(F)F)cc2)[C@@H]4c2ccccc2)C3c2ccc(Cl)nc2)cc1 (stereo partly drawn)	1.2%
30	CC(C)Cn1c(SCC(=O)c2ccc(Cl)s2)nnc1-c1ccco1	-17.9%
31	Cc1ccccc1Cn1cnc2c(cnn2C(C)(C)C)c1=O	5.6%
32	CN1CCN(C(=O)c2ccc(C(C)(C)C)cc2)CC1	9.7%
33	CCOC(=O)c1ccc(NC(=O)Cn2nnc(-c3ccc(F)cc3)n2)cc1	-3.2%
34	Cc1noc(C)c1S(=O)(=O)N1CCCC(C(=O)NCC2CCCO2)C1 (stereo not drawn)	11.1%
35	COCC(C)NC(=O)COc1ccc(Cl)cc1Cl (stereo not drawn)	2.6%
36	Cc1ccc(CSc2nc3c(c(=O)[nH]2)C(c2ccncc2)C2=C(CCCC2=O)N3)cc1 (stereo not drawn)	25.1µM*
37	O=C(OCC(O)CO)c1ccccc1Nc1ccnc2cc(Cl)ccc12 (stereo not drawn)	?
38	CC(=O)c1nn(-c2cccc(Cl)c2)cc1C(=O)c1ccco1	3.6%
39	Cc1c(C(=O)N2CCc3ccccc32)oc2c1C(=O)CC(C)(C)C2	3.9%
40	CCOC(=O)CCCSc1nc2sc(C)c(C)c2c(=O)[nH]1	3.0%
41	CC(Sc1cccc(C(F)(F)F)c1)C(=O)NC(N)=O (stereo not drawn)	8.9%
42	O=C(Nc1ccc(Br)cc1F)c1ccncc1	-13.8%
43	COc1cc2c(cc1NC(=O)c1ccc3c(c1)OCO3)oc1ccccc12	31.6µM*
44	Cc1ccc(N2CC(C(=O)N3CCN(c4ccccc4)CC3)CC2=O)cc1 (stereo not drawn)	9.4%
45	O=C(CSc1nnc(C2CCCCC2)n1-c1ccccc1)NCc1ccco1	-16.0%
46	CCN(Cc1ccncc1)S(=O)(=O)c1ccc(C(C)=O)cc1	-10.6%
47	N#Cc1cccc(-c2cc(-n3ccnc3)ncn2)c1	3.2%
48	CN(CC(=O)N1CCCc2c1c(=O)oc1ccc(O)cc21)Cc1ccccc1	-1.6%
49	Cc1cc(NC(=O)COc2cccc3cccnc23)no1	-21.0%
50	CCC(c1nc2ccccc2c(=O)n1-c1cccnc1)N1C(=O)c2ccccc2C1=O (stereo not drawn)	3.0%
51	CC1(C)CC(=O)c2cnc(NCc3ccco3)nc2C1	10.0%
52	O=C(NCC(c1cccnc1)N1CCN(c2ccccc2)CC1)c1ccc2c(c1)OCO2 (stereo not drawn)	4.8%
53	Cn1c(=O)[nH]c(=O)c2c1nc(Br)n2CCOc1ccccc1	-0.6%
54	O=C(COc1ccccc1)NCCSCc1ccco1	-5.2%
55	CC1(C)OC[C@@H]2O[C@H](n3cnc4c(N)nc(Cl)nc43)[C@@H](OS(C)(=O)=O)[C@@H]2O1	0.9%[11.4 µM]
56	COCC(=O)N1CCC2(CCCN(c3ccc(-c4ccccc4)cc3)C2)CC1	25.1µM*
57	Cc1nc2c3ccccc3[nH]c(=O)n2n1	?
58	Nc1ccc(-c2ccc(N)c(O)c2)cc1O	-17.5%
59	c1ccc(Cc2nnc3sc(-c4ccc5c(c4)OCO5)nn23)cc1	12.6µM*
60	CC(=O)Nc1ccc(S(=O)(=O)NC(C(=O)O)C2=CCC=CC2)cc1 (stereo not drawn)	8.8%

Compounds above with a thiophene ring, fused or not:
cpd	Structure	HSD17B inh
6	CCOC(=O)c1cc(-c2ccc(Cl)s2)nc2c1c(C)nn2C	31.6µM*
30	CC(C)Cn1c(SCC(=O)c2ccc(Cl)s2)nnc1-c1ccco1	-17.9%
40	CCOC(=O)CCCSc1nc2sc(C)c(C)c2c(=O)[nH]1	3.0%

Next section
cpd	Structure	HSD17B inh
61	O=C(C1CC(c2ccc(F)cc2)=NO1)N1CCCCC1 (stereo not drawn)	-7.9%
62	COc1ccc(N(C(C)C(=O)NC2CCCCCC2)S(C)(=O)=O)cc1 (stereo not drawn)	-8.5%
63	Cc1nc2ccccc2c(=O)n1/N=C/c1c(O)ccc2oc3c(c12)CCCC3	12.2%
64	CCN(CCNC(=O)C1CCN(Cc2nc(-c3ccc(Cl)cc3)oc2C)CC1)c1ccccc1	-20.4%
65	CCCCS(=O)(=O)/C=C\C1C2C=CC(C2)C1S(=O)(=O)CCCC (stereo not drawn)	5.5%
66	COc1ccc(C(=O)N2CCC3(CCN(Cc4ccccc4OC)CC3)CC2)cc1	7.0%
67	Cc1ccc(S(=O)(=O)N(C)CCCC(=O)n2nc(C)cc2C)cc1	-5.3%
68	CN(C)CCCCSC(=N)N	-1.2%&-7.4%
69	O=C1c2ccccc2C(=O)C1(O)O	-0.7%
70	CCn1c(CNC(=O)c2ccc3c(c2)OCO3)nnc1SCC(=O)Nc1cc(C)ccc1OC	8.0%
71	COc1ccc(Cn2c(CCC(=O)O)nc3cccnc32)cc1	-2.9%
72	COC(=O)C(N)CS (stereo not drawn)	-9.9%
73	CNc1nc(C)c(C#N)c(-c2ccccc2)c1C(C)=O	5.5%
74	CN(C)c1nc(C(=O)OCCO)nc(N(C)C)n1	2.1%
75	CC1(C)NC(=O)N(CCOc2cccc(Oc3ccccc3)c2)C1=O	0.0%
76	Cc1onc(-c2c(F)cccc2Cl)c1C(=O)Nc1c(C)n(C)n(-c2ccccc2)c1=O	-2.0%
77	O=c1c(-c2ccc(F)c(F)c2)nc2cncnc2n1-c1ccccc1	-28.0%
78	COc1ccc(NC(=O)CSc2nc3ccccc3c(=O)n2-c2ccc3c(c2)OCO3)c(OC)c1	-3.3%
79	CCc1ccc(-c2cn(-c3nc(C)cc(C)n3)c(=N)o2)cc1	-3.9%
80	O=c1[nH]c(C2CCCN(S(=O)(=O)c3ccccc3)C2)nc2c1nnn2Cc1ccccc1 (stereo not drawn)	?
81	CN(Cc1ccccc1)S(=O)(=O)c1ccc(NS(C)(=O)=O)cc1	-0.3%
82	O=S(=O)(Cc1ccccc1)N1CCC(N2CCN(c3ccccc3)CC2)CC1	-13.4%
83	O=C(NCCCN1CCOCC1)c1cc(-c2ccc(O)cc2)on1	0.8%
84	Cc1csc(OCc2ccc(C#N)cc2)n1	-9.0%
85	COc1ccc(OCC(=O)Nc2ccc3c(c2)nc(CCN2CCOCC2)n3C)cc1	?
86	CC(C)C(=O)N1CCN(c2ccccc2NC(=O)Cc2ccc(Cl)cc2)CC1	0.1%
87	Cc1cccc(OCCCC(=O)O)c1C	11.3%
88	COc1ccc(-c2noc(CSc3nnc(CCc4ccccc4)n3-c3ccccc3)n2)cc1OC	-2.0%
89	O=S(=O)(Nc1ccc(C(F)(F)F)cc1)c1cnc[nH]1	7.1%
90	COc1ccc(C(=O)N2CCCC(c3nc(-c4ccc(OC)c(OC)c4)no3)C2)c(OC)c1 (stereo not drawn)	2.4%
91	Cc1ccc2ccc(S(=O)(=O)n3nc(C)cc3C)cc2c1	?
92	CCCC(=O)N1CCN(c2ccc(NC(=O)c3ccccc3)cc2)CC1	-2.5%
93	O=C(NC(=O)N1CCN(c2cccc(Cl)c2)CC1)c1ccccc1	2.3%
94	CC(C)CCNC(=O)NC(=O)CSc1nnc2ccccn12	-2.1%
95	CCN=C1SCC(=O)N1c1ccc(OC)cc1	-4.9%
96	Cc1ccc(C(C(=O)NC(C)(C)C)N(C(=O)c2csnn2)c2cccc(F)c2)o1 (stereo not drawn)	-10.1%
97	COC(=O)CN(c1ccc(C)cc1)S(=O)(=O)c1ccc2c(c1)n(C)c(=O)c(=O)n2C	5.3%
98	O=C(CN1CCN(S(=O)(=O)c2ccc(Cl)cc2)CC1)Nc1ccc2c(c1)OCO2	-1.4%
99	C#CCOC(=O)c1ccccc1C(=O)N(CC)CC	4.7%
100	CNC(=O)[C@H](C)[C@@H]1C[C@@]1(C)[C@@H](NC(=O)OCc1ccccc1)c1ccccc1	6.1%
101	CC(C)Oc1ccc(C(=O)Nc2ccc(N(C)C)cc2)cc1	-28.4%
102	CCOC(=O)CN(C(=O)Cn1nnc2ccccc21)C(C(=O)NCCOC)c1ccccc1C (stereo not drawn)	4.6%
103	Cc1cc(N2CCN(c3nnnn3-c3ccccc3)CC2)n2ncnc2n1	2.8%
104	COc1ccc(NC(=O)c2ccc3c(c2)n(C)c(=O)n3C)cc1	4.8%
105	O=C(Nc1nnc(-c2ccccc2Cl)o1)c1cccnc1	-2.0%
106	C#CCCCO/N=C1/C[C@@H](O)[C@@H](O)[C@@H]2[C@@H]3C(=O)N(C[C@@H]4CCCO4)C(=O)[C@H]3CC[C@H]12	-1.7%[11.4 µM]
107	CCN(CC)CCNC(=O)c1ccc2c(c1)ncn2C1CCCCC1	10.5%
108	O=C(CSc1ncnc2c1cnn2Cc1ccccc1)Nc1ccc2c(c1)OCCO2	2.1%
109	CCN(CC)COC(=S)S	-4.0%[11.4 µM]
110	C=CCn1c(N)c(C(=O)N2CCN(C)CC2)sc1=S	2.7%
111	O=C(c1ccco1)N1CCN(C(=O)C2(S(=O)(=O)c3ccc(Cl)cc3)CC2)CC1	-3.9%
112	COc1ccc(OC)c(NC(=O)c2cc3ccccc3o2)c1	47.9%[activator]
113	Cc1sc2c(c1C)c(=O)n(-c1ccccc1)c1nncn21	5.0%
114	O=S(=O)(NC1CCCCC1)c1ccc(Cl)s1	-4.3%
115	CCN1CCCC1Cn1c(-c2ccccc2)nc2c(N3CCOCC3)nc(C)nc21 (stereo not drawn)	25.1µM*
116	CCOc1ccc2nc(NC3=NCN(CC4CCCO4)CN3)nc(C)c2c1 (stereo not drawn)	?
117	c1ccc(Cn2nnc3c(N4CCCC4)ncnc32)cc1	-6.0%
118	COC(=O)N1CCC2(CCCN(Cc3cc(C(F)(F)F)cc(C(F)(F)F)c3)C2)CC1	-11.3%
119	O=C(COc1ccc(F)cc1Br)N1CCc2ccccc21	7.8%
120	COc1ccc(Cl)cc1C(=O)N1CCN=C1SC	3.9%

(cont.)
cpd	Structure	HSD17B inh
121	O=C(Nc1cccc2ccccc12)N1CCN(c2ccc(F)cc2)CC1	?
122	CN(C)CCNC(CC(=O)Nc1ccc(Cl)c(Cl)c1)C(=O)O (stereo not drawn)	12.0%
123	CCOC(=O)c1ccc(COC(=O)CNC(=O)CNC(=O)c2ccc(OC)cc2)o1	1.8%
124	O=C1c2ccccc2C(Nc2ccc(F)cc2F)N1CCN1CCOCC1 (stereo not drawn)	-12.4%

Source: PubChem
